Compound activity as filed in PubChem.
H5N1 CPE: MDCK cell protection from H5N1 avian flu | cytopathic effect, luminescence, 72 h; active compounds read high; no value below 0 was filed and about half of the inactive calls have no number; reference of the scale not given here | inhibition, % at 50 µM | 96,000 tested, 0.07% active; in the data active = inhibition above about 25%
* marks the source's active call; other numbers are inactive results; i = inactive.

SMILES | H5N1 CPE
COc1ccccc1NCC(O)Cn1c2ccccc2c2ccccc21 (stereo unspecified) | i
COc1ccc2c(c1OC)C(=O)OC2CC(=O)c1ccc(O)cc1 (stereo unspecified) | i
CC(=O)c1ccc(OCC(C)C)c(CN2CCCCC2)c1 | i
CC(=O)Nc1ccc(C(=O)Nc2ccc(S(=O)(=O)NCC3CCCO3)cc2)cc1 (stereo unspecified) | 0.5
COc1ccccc1N=C(C)C1=C(O)COC1=O | i
CCn1c(-c2c[nH]c3ccccc23)n[nH]c1=S | 0.3
CCn1c2ccccc2c2cc(/C=N/NC(=O)c3cccc(C)c3)ccc21 | 1.4
COc1ccccc1C1C(C(=O)NCc2ccccc2)=C(C)Nc2ncnn21 (stereo unspecified) | 0.1
Cc1ccc(N2CCN(S(=O)(=O)N(C)C)CC2)cc1Cl | 3.0
CCOC(=O)N1CCN(c2cc(=O)n(-c3ccc(OCC)cc3)c(=O)[nH]2)CC1 | i
CCOc1cccc(SCc2noc(C(=O)NCC3CCCO3)c2C(=O)O)c1 (stereo unspecified) | i
Cc1c(C(=O)N2CCC(C)CC2)oc2ccc(S(=O)(=O)N3CCC4(CC3)OCCO4)cc12 | 0.8
Cc1c(C#N)c2ccccc2n1CCOc1ccccc1F | 1.0
COc1cc(S(=O)(=O)N2CCOCC2)cc(C(=O)c2nccn2C)c1OC | 0.1
CCn1cc(C(=O)NCCCOC)c2cc(OC)c(OC)cc2c1=O | 2.0
Cc1ccc(S(=O)(=O)N(CC(=O)NCCSc2ccccn2)c2cc(C)cc(C)c2)cc1 | 0.8
COCCNC(=O)C(OC(=O)CC1Sc2ccccc2NC1=O)c1ccncc1 (stereo unspecified) | 0.3
COCC(C)n1c(C)cc(C(=O)COC(=O)c2nc3nc(C)cc(C)n3n2)c1C (stereo unspecified) | 0.4
CCOc1ccc(S(=O)(=O)N2c3ccccc3CC2C)cc1 (stereo unspecified) | 3.8
CC(=O)N(CCO)Cc1cc2cc(C)cc(C)c2[nH]c1=O | i
CCCN1CCCc2ccccc21 | 0.6
CCCc1cc(=O)oc2cc(OCC(=O)OC)cc(OCC(=O)OC)c12 | i
N#Cc1ccc(CSc2nnc(Cc3cccs3)n2Cc2ccco2)cc1 | 0.7
COc1ccc2oc(/C=C/N(C)C)c(C(=O)c3ccc(Cl)cc3)c2c1 | 0.1
COc1cc(OC)cc(C(=O)NC(=S)Nc2ccc3c4c(cccc24)CC3)c1 | i
C/C=C/c1ccc(OCCCCN2C(=O)NC(C)(C)C2=O)c(OC)c1 | 1.8
COc1ccc2occ(C(C)=O)c2c1 | i
CCOC(=O)c1sc(C)c2c(=O)n(Cc3ccc(Cl)cc3)c(C)nc12 | i
O=C1CC(SCc2nc3ccccc3[nH]2)C(=O)N1c1ccc(Cl)cc1 (stereo unspecified) | i
COc1ccc(C2=NOC(C(=O)Nc3cc(C)nn3-c3ccccc3)C2)cc1OC (stereo unspecified) | i
Cc1ccc(CN2CCN(C(=O)C3CCC3)CC2)cc1 | 0.4
O=C(O)CCNc1ccc2c(c1)OCCO2 | i
Cc1sc2ncn(CC(=O)OC(C)C)c(=O)c2c1C | i
O=C(CSc1nc2ccccc2c(=O)n1Cc1ccco1)N1CCCCCC1 | 5.3
Cc1cc(NC(=O)COc2cccc(Oc3ccccc3)c2)no1 | i
Cc1cc(Br)ccc1NC(=O)CNC(=O)CN1C(=O)NC2(CCCCCC2)C1=O | i
CCOC(=O)N1CCN(c2c(NCc3ccccc3OC)c(=O)c2=O)CC1 | i
N=c1c(C(=O)NCc2ccc(F)cc2)cc2c(=O)n3ccccc3nc2n1CC1CCCO1 (stereo unspecified) | 2.9
O=C(NCCc1ccc(Cl)cc1)C1CCN(S(=O)(=O)c2ccc(-n3cnnn3)cc2)CC1 | i
CN(CCNC(=O)C1CC(=O)N(c2ccc(F)c(Cl)c2)C1)Cc1ccccc1 (stereo unspecified) | i
CCOC(=O)C1=C(C)N=c2s/c(=C\c3ccc(OC(C)=O)c(OCC)c3)c(=O)n2C1/C=C/c1ccccc1 (stereo unspecified) | i
c1ccc(Oc2cc(-n3cccn3)ncn2)cc1 | i
CC(C)c1ccc(NC(=O)C(c2ccccc2)N2CCN(C(=O)c3ccco3)CC2)cc1 (stereo unspecified) | i
CCCn1c(N)c(C(=O)COC(=O)c2c(C)noc2C)c(=O)n(C)c1=O | i
O=C(CN1CCc2ccccc2C1)NCc1ccco1 | 0.1
O=C(COC(=O)c1ccccn1)NCCCc1ccccc1 | i
COc1cccc(-c2csc(N3CCN(C(=O)C4CCCCC4)CC3)n2)c1 | 0.2
O=C1c2ccccc2CCCC12N=NCC2c1cccc2ccccc12 (stereo unspecified) | 3.7
CCc1ccc(/C=C\C(=O)N2CCc3ccccc3C2)cc1 | i
O=C(Nc1ncc(Br)s1)C1CCCN1S(=O)(=O)c1cccc2cccnc12 (stereo unspecified) | 0.1
O=C(CCn1c(=O)[nH]c2ccsc2c1=O)N1CCN(c2cccc(Cl)c2)CC1 | 2.8
CCN(CC)S(=O)(=O)c1cc([N+](=O)[O-])ccc1NNC(=O)Nc1ccccc1 | 7.8
CCOC(=O)c1c(N)sc(C(=O)N2CCCC2)c1C | 0.1
COC(=O)c1ccccc1NC(=O)c1cc(-c2ccc(C)cc2)on1 | i
Cc1nn(C(C)C(=O)N2CCCCC2)c(=O)c2c1sc1ccccc12 (stereo unspecified) | i
COc1ccc(C)cc1S(=O)(=O)N1CCN(S(=O)(=O)c2cc(C)ccc2OC)CC1 | 0.4
CCOCCCNC(=O)C(c1ccc(C)cc1)N1CCOCC1 (stereo unspecified) | 1.4
C=CCOC(=O)C1=C(C)OC(N)=C(C#N)[C@@]12C(=O)N(CC(N)=O)c1ccccc12 | 1.6
CCC1CCCCN1C(=O)CSc1nnc(-c2ccc3c(c2)OCCO3)o1 (stereo unspecified) | i
N#CC1(C#N)CC(C=O)=C(N)C1(C#N)CC(=O)c1ccc(F)cc1 (stereo unspecified) | 2.8

7 entries out of the list, sorted by formula weight, lowest first.
SMILES | H5N1 CPE
CCOC(=O)c1c(N)sc(C(=O)N2CCCC2)c1C | 0.1
COC(=O)c1ccccc1NC(=O)c1cc(-c2ccc(C)cc2)on1 | i
Cc1nn(C(C)C(=O)N2CCCCC2)c(=O)c2c1sc1ccccc12 (stereo unspecified) | i
C=CCOC(=O)C1=C(C)OC(N)=C(C#N)[C@@]12C(=O)N(CC(N)=O)c1ccccc12 | 1.6
CCN(CC)S(=O)(=O)c1cc([N+](=O)[O-])ccc1NNC(=O)Nc1ccccc1 | 7.8
O=C(CCn1c(=O)[nH]c2ccsc2c1=O)N1CCN(c2cccc(Cl)c2)CC1 | 2.8
O=C(Nc1ncc(Br)s1)C1CCCN1S(=O)(=O)c1cccc2cccnc12 (stereo unspecified) | 0.1

Going on with the list:
SMILES | H5N1 CPE
Cc1ccc(OCC(=O)Nc2ccc(F)cc2)cc1 | i
CCOc1ccccc1Nc1nc(N)nc(CSc2nncn2C)n1 | 0.6
COc1ccc(/C(N)=N/OC(=O)Oc2ccccc2)cc1 | 0.3
Nc1c(C(=O)O)nnn1Cc1ccccc1 | i
O=C(c1ccc(Cl)c(F)c1F)N1CCOCC1 | i
CC1CCCCC1NC(=O)C1CCN(S(=O)(=O)N2CCCCCC2)CC1 (stereo unspecified) | 1.3
CN1CCN(C(=O)C2CCN(S(=O)(=O)c3ccc4c(c3)oc(=O)n4C)CC2)CC1 | 0.8
c1ccc(CCCNc2ncnc3nc[nH]c23)cc1 | 0.4
Cc1cccc(OCc2nnc(SCC(=O)NCCc3ccccc3)o2)c1 | i
Cc1onc(-c2ccncc2)c1C(=O)O | 0.2
COc1cc(/C=N/NC(=O)Nc2cccc3nsnc23)cc(OC)c1OC | 0.1
CC1CC(C)CN(S(=O)(=O)c2ccc(C(=O)Nc3nnc(-c4cccs4)o3)cc2)C1 (stereo unspecified) | 0.1
c1ccc(OCCCCn2cnc3ccccc32)cc1 | i
CCn1c(CC(=O)Nc2ccc(C)c(Cl)c2)nnc1SCC(=O)Nc1nc(C)cs1 | 0.2
COc1ccc(N2C(=O)CSC2c2ccc3c(c2)OCO3)c(OC)c1 (stereo unspecified) | i
O=C(c1ccc(F)cc1)N1CCN(c2ccc([N+](=O)[O-])c(N3CCCCC3)c2)CC1 | i
CC1CCN(CCCCOc2ccc(C(=O)c3ccccc3)cc2)CC1 | i
CCC(C)N1C(=O)CCC1C(=O)N1CCN(c2ccccc2F)CC1 (stereo unspecified) | i
CCC(=NCCO)c1c(O)n(C2CCCCC2)c(=O)[nH]c1=O | 0.8
O=[N+]([O-])c1ccc(-c2csc3[n+]2CCS3)cc1 | i
CCc1cc2cc3c(cc2nc1SCC(=O)Nc1cc(C)on1)OCO3 | 0.9
CC1CC(C)CN(C(=O)c2ccncc2)C1 (stereo unspecified) | 1.6
CCCCC(=O)Nc1cc(OCC)c(NC(=O)c2ccccc2[N+](=O)[O-])cc1OCC | 1.1
CN(C)CC(O)COc1cccc(OCC(O)CN(C)C)c1 (stereo unspecified) | 1.8

Three of the compounds above, tab-delimited.
SMILES	H5N1 CPE
c1ccc(OCCCCn2cnc3ccccc32)cc1	i
CCn1c(CC(=O)Nc2ccc(C)c(Cl)c2)nnc1SCC(=O)Nc1nc(C)cs1	0.2
COc1ccc(N2C(=O)CSC2c2ccc3c(c2)OCO3)c(OC)c1 (stereo unspecified)	i

(list continues)
SMILES | H5N1 CPE
O=C1c2ccccc2C(=O)N1CCCCN(C(=O)c1ccc([N+](=O)[O-])cc1)c1ccc(Cl)cc1 | 4.3
O=C(Cc1ccccc1)N1CCC(c2nc3ccccc3[nH]2)CC1 | i
O=C(Oc1cccc2c(=O)[nH]ccc12)c1ccccc1 | 0.1
CSc1nnc(NC(=O)c2ccc(C)c(S(=O)(=O)N3CCOCC3)c2)s1 | 0.2
O=C(Nc1nnc(CC(c2ccccc2)c2ccccc2)s1)c1ccco1 | 0.2
c1cc2c(cc1C1=Nn3c(nnc3C3CCCCC3)SC1)OCO2 | 1.4
C/C(N)=C(/C#N)C(=O)COC(=O)C1CCC(C(C)(C)C)CC1 (stereo unspecified) | 0.1
Cc1cc(C)cc(OCC(=O)OCC(=O)NCc2ccco2)c1 | 1.2
Cc1noc2ncnc(Sc3c(Cl)cccc3Cl)c12 | 6.3
CCOC(=O)c1ccc(NC(=O)CC2C(=O)N(c3ccc(F)cc3)C(=O)N2CCCOC)cc1 (stereo unspecified) | 0.2
COc1ccc(CN2CC(C(=O)NCc3ccccn3)CC2=O)cc1 (stereo unspecified) | 0.1
CCN(Cc1cc2ccc(C)cc2[nH]c1=O)C(=O)c1cccnc1 | i

Entries from the list above that contain a cyano group (five):
SMILES | H5N1 CPE
Cc1c(C#N)c2ccccc2n1CCOc1ccccc1F | 1.0
N#Cc1ccc(CSc2nnc(Cc3cccs3)n2Cc2ccco2)cc1 | 0.7
C=CCOC(=O)C1=C(C)OC(N)=C(C#N)[C@@]12C(=O)N(CC(N)=O)c1ccccc12 | 1.6
N#CC1(C#N)CC(C=O)=C(N)C1(C#N)CC(=O)c1ccc(F)cc1 (stereo unspecified) | 2.8
C/C(N)=C(/C#N)C(=O)COC(=O)C1CCC(C(C)(C)C)CC1 (stereo unspecified) | 0.1

Next part:
SMILES | H5N1 CPE
O=C(Cn1cnc2ccccc2c1=O)c1ccc2ccccc2c1 | i
CC(C)Oc1cccc(C(=O)NC(=S)Nc2ccc3c4c(cccc24)CC3)c1 | i
Cc1[nH]c(=O)[nH]c(=O)c1S(=O)(=O)NCCc1ccc(S(N)(=O)=O)cc1 | 0.1
N#C/C(=C/c1ccc(N2CCCCC2)o1)C(=O)Nc1ccc(Cl)cc1 | i
COc1ccc(NC(=O)C2CCC(N3C(=O)C4C5C=CC(C5)C4C3=O)CC2)cc1 (stereo unspecified) | 0.9
CC1(C)CC(O)C(C)(C)N1O (stereo unspecified) | 0.2
CCOc1ccc2[nH]c(=O)c(CN(Cc3cccs3)Cc3nnnn3C(C)(C)CC)cc2c1 | 17
COC(=O)c1ccc2c(c1)N(C)C(=O)CS2 | 0.5
CCN1CCN(c2ccc(NC(=O)CCc3c(C)nc4c(-c5ccccc5)c(C)nn4c3C)cc2)CC1 | i
CCCCSc1nc2c(cnn2-c2ccc(Cl)cc2)c(=O)[nH]1 | i
O=c1cc(CSc2ccc(Cl)cc2)nc2nc[nH]n12 | 0.2
Cc1nn(-c2ccccc2)c(C)c1C(=O)OC/C(O)=C(\C#N)c1nc2ccccc2[nH]1 | 0.3
COc1ccccc1CNC(=O)C1CC(=O)N(C2CCCC2)C1 (stereo unspecified) | 0.3
Cc1nc(-c2ccccc2)sc1C(=O)CSc1ccc(Br)cc1 | i
Cc1ccc(CN2C(=O)CCC2C(=O)NCCN(CC(C)C)CC(C)C)cc1 (stereo unspecified) | 0.5
COc1ccccc1N1CCN(C(=O)c2cn(-c3ccccc3)nc2-c2cccnc2)CC1 | i
N/C(Cc1ccc([N+](=O)[O-])cc1)=N\OC(=O)COc1cccc2ccccc12 | i
O=C(Nc1cccnc1)C1OCCc2ccccc21 (stereo unspecified) | 0.7
CCCCOc1cc(C)nc(NCc2ccccc2)n1 | i
CS(=O)(=O)c1ccccc1-c1nc(-c2cc(C(F)(F)F)cc(C(F)(F)F)c2)no1 | i
COc1cccc(-n2c(SCC(=O)NC(C)(C)C)nnc2-c2ccoc2C)c1 | 2.1
Cc1ccc(N(C(=O)CNC(=O)c2ccco2)C(C(=O)NCC2CCCO2)c2ccccc2)cc1 (stereo unspecified) | i
O=C(COc1ccc(=O)n(-c2ccccc2)n1)Nc1ccccc1 | i
O=C(CCN1C(=O)c2ccccc2S1(=O)=O)NCc1ccco1 | i

Reprinted at random: two compounds from above
SMILES | H5N1 CPE
Cc1nc(-c2ccccc2)sc1C(=O)CSc1ccc(Br)cc1 | i
O=C(CCN1C(=O)c2ccccc2S1(=O)=O)NCc1ccco1 | i

Remaining list, next part:
SMILES | H5N1 CPE
Cc1cccc(Cn2cnc3c(NS(C)(=O)=O)c(C)c(C)cc32)c1 | 1.0
Cc1cc2ccccc2c(=O)n1CC(=O)N(C)c1ccc(F)cc1 | 0.6
Cc1ccsc1C(=O)Nc1cc(C(C)(C)C)nn1-c1ccccc1 | 0.4
N#Cc1nc(-c2cccs2)oc1NCc1ccccc1Cl | i
CCCCCSc1nc(O)cc(=O)[nH]1 | i
CC(C)(C)c1cc(NC(=O)COc2ccc(Br)cc2)n(-c2ccccc2)n1 | 6.3
O=C(CCS(=O)(=O)c1cccc2nsnc12)NCc1ccccc1Cl | 79*

Not all compounds are listed; rates above refer to the full screens.
